Screening results as filed in PubChem BioAssay.
NPYLR7 agonist: activates Aedes aegypti NPYLR7 receptor. HEK293T NPYLR7/Galpha15, GCaMP6s calcium fluorescence. activation, % at 10 µM. hit rate 0.15% among 270,000. AID 1259423; in the data active = activation above about 40%;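 also: 0% = vehicle and 100% = reference agonist at the receptor; some compounds past the cut are filed as inactive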
NPYLR7 agonist max-min: further read-out of NPYLR7 agonist, marked with its call; activation, %; measured here: Max-Min RFU normalised activation; some inactives read as strong as hits;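 span of the calcium signal over five minutes; 0% = vehicle and 100% = native peptide agonist; compound fluorescence can raise it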
Active calls of the source: *; & = joins results of further samples. Not all compounds are listed, so the mix of outcomes need not match the whole.

Structure | NPYLR7 agonist | NPYLR7 agonist max-min
O=C(CC1CCOCC1)N1[C@H]2CCNC[C@@H]1CC2 | 1.2 | 17.6
Cc1ccc(F)c(C2NCCc3[nH]cnc32)c1 (stereo not given) | -5.6 | -4.7
CC(C)N(CC(=O)Nc1nc(CC(=O)N2CCN(C(c3ccccc3)c3ccccc3)CC2)cs1)C(=O)c1ccco1 | -12.2 | -2.0
CC(C)(C)n1nc(-c2ccccc2)c2c1N(CC(=O)O)C(=O)CSC2c1ccccc1Cl (stereo not given) | 0.3 | -3.4
Cc1nn(-c2ccccc2)c(C)c1P(C)(=S)c1ccccc1 (stereo not given) | 18.4 | 23.1
Cc1ccc(OC(=O)N(C)C)c(CN(C)C)c1 | 17.6 | 10.6
NC(=O)c1cc(CBr)on1 | 4.0 | 0.6
Cc1ccc2c(c1)c(=O)c1c3n2CNCC3CC1 (stereo not given) | -1.2 | -6.5
Cc1cc(NC(=O)c2cc3cccnc3n(Cc3ccccc3F)c2=O)ccc1Br | -0.7 | -0.3
O=C1NCCN2CCN(C3CSCCSC3)CC12 (stereo not given) | 1.9 | 1.2
COc1cc(C(=O)N2CCC3(CCN(C)C3)CC2)nc(OC)n1 | 6.5 | 4.2
CC(N)C(O)c1ccc(Br)cc1 (stereo not given) | 6.5 | 3.9
Cc1ccc(C2(CN3C[C@@H]4C[C@@H](C3)c3cccc(=O)n3C4)CCNCC2)nc1 | 7.3 | 6.2
O=C(Nc1ccc(C(F)(F)F)cc1)c1nn(Cc2ccc(-c3ccccc3)cc2)c2ccccc12 | 17.4 | 17.1
COc1cccc([C@@H]2CN(S(=O)(=O)C3CC3)[C@@H]3C4CCN(CC4)[C@@H]32)c1 | 2.0 | 2.1
N#Cc1ccccc1NC(=O)c1cccn(Cc2cccc(C(F)(F)F)c2)c1=O | 9.8 | 4.4
COc1ccc2c(c1)c(C(=O)Nc1ccc(C(N)=O)cc1)nn2Cc1ccc(C(=O)N2CCOCC2)cc1 | 18.4 | 18.9
CCN(C(C)=O)c1ccc(C(O)(C(=O)OC)C(F)(F)F)cc1 (stereo not given) | 0.0 | -2.1
c1cncc(-n2cccc2CN2CCC3(CCNCC3)C2)c1 | 23.4 | 15.2
CN1CCC2(CC1)NCCc1[nH]cnc12 | 3.3 | 1.3
Oc1ccc2c3c1OC1C(O)CC[C@@]4(O)[C@@H](C2)N(CC2CCC2)CC[C@]314 (stereo not given in full) | -15.8 | -19.6
O=C(Nc1ccc(F)c([N+](=O)[O-])c1)c1cccn(Cc2cccc(C(F)(F)F)c2)c1=O | 11.8 | 3.0
O=C(Cc1ccc(F)cc1)N1CCN(Cc2ccc(-c3noc(-c4cccc(C(F)(F)F)c4)n3)cc2)CC1 | 3.2 | 1.8
O=C(Nc1ccc2[nH]cc(CCN3CCOCC3)c2c1)c1ccccc1SC(F)F | 1.2 | 5.5
CN(C)c1ncc(CN2CCC3(CCNCC3)C2)cn1 | 11.1 | 7.6
CC(=O)c1cccc(NC(=O)c2cccn(Cc3ccccc3Cl)c2=O)c1 | 16.7 | 7.1
O=C(c1ccccc1Cl)N1CCSC12CCNCC2 | 8.5 | 17.7
CCOP(=O)(OCC)C(Cl)(Cl)C(OC(N)=O)P(=O)(c1ccccc1)c1ccccc1 (stereo not given) | -8.7 | -15.2
Cc1cccc(C(C)c2cnc[nH]2)c1C (stereo not given) | -6.4 | -10.1
CN(C)C(Cc1ccccc1)C(=O)c1ccccc1 (stereo not given) | 2.3 | -5.4
Cc1nc2ccccn2c1P(=S)(N1CCOCC1)N1CCOCC1 | 1.8 | 3.3
CCN(CC)CCOc1ccc(CC(C)N)cc1 (stereo not given) | 1.2 | 0.4
CCC(=O)Nc1ccc(OCC(=O)N2CCC(N(C)C)C2)cc1 (stereo not given) | -3.6 | 4.0
CCCn1c(C)c(C(=O)NC2CC2)c2cc(OC)ccc21 | 1.4 | -1.9
CCC(C)(C)c1ccc(S(=O)(=O)N2CCN(CCOC(c3ccccc3)c3ccc(F)c(F)c3)CC2)cc1 (stereo not given) | 4.1 | 0.1
CCOc1ccc(N2CCNCC2)nn1 | -2.7 | -0.7
COc1ccccc1[C@@H]1CN(c2ncccc2C(N)=O)[C@@H]2C3CCN(CC3)[C@@H]21 | 5.2 | 3.6
COc1ccc(C(=O)C2CCCN(Cc3c(C)nn(C)c3Cl)C2)cc1F (stereo not given) | 9.9 | -1.1
CCOC(=O)c1cncn1[C@@H](C)c1ccccc1 | -9.0 | -12.6
CCOC(=O)CNC(=O)CN1CC1C(=O)OCC (stereo not given) | -11.1 | -17.7
COC(=O)C1=C(C(=O)OC)C2c3ccccc3C=CN2C(C(=O)OC)=C1C(=O)OC (stereo not given) | 3.2 | 1.8
CC(=O)Nc1ccc(OC[C@](C)(O)C(=O)Nc2ccc([N+](=O)[O-])c(C(F)(F)F)c2)cc1 | -5.2 | -4.9
C(=NN1CCCCC1)c1c[nH]c2ccccc12 | 9.0 | 7.8
CC(C)CCOc1ccc(C=C(C#N)C#N)cc1 | 1.5 | -0.7
COC(=O)c1ccccc1NC(=O)c1cccn(Cc2cc(C)ccc2C)c1=O | 5.7 | 1.9
O=C(Nc1ccc2[nH]cc(CCN3CCOCC3)c2c1)c1ccc(SC(F)(F)F)cc1 | 6.9 | 1.2
CCN1CCN(C(=S)N[P+](c2ccccc2)(N(CC)CC)N(CC)CC)CC1 | 4.4 | 6.6
N#Cc1ccc(N2CCCC(CS(N)(=O)=O)C2)cc1Cl (stereo not given) | -4.8&16.2 | -4.5&8.1
CN1C(=O)C(=Cc2ccccc2OCCOc2ccc([N+](=O)[O-])cc2)C(=O)N(C)C1=O | -2.9 | -4.0
CCN(CCc1ccccc1)Cc1nnsc1Cl | 10.8 | 6.1

(further entries)
Structure | NPYLR7 agonist | NPYLR7 agonist max-min
CNC(=O)Cc1noc(CN2CC=C(c3ccc(O)cc3)CC2)n1 | 3.0 | 8.6
O=C(Cc1ccccc1)N1CCN(C(C(=O)N2CCOCC2)C2CCCC2)CC1 (stereo not given) | -4.0 | -2.8
C[C@@H]1CN(C(=O)c2cn(Cc3ccccn3)cc(C(=O)NC3CCCCCCC3)c2=O)C[C@H](C)O1 | -0.9 | -7.8
O=C1CSC(c2ccccc2Cl)c2cc(Cl)ccc2N1 (stereo not given) | -12.2 | -17.7
CCC/C=C/c1csc(CN2CCNCC2)c1 | -7.2 | -8.4
Cc1ccc2nc(N3CCNCC3)sc2c1 | -2.9 | -5.1
O=C(CN1CCCN(c2cncc(F)c2)CC1)N1CCCC1 | 0.1 | -1.1
COc1cc(NC(=O)N2CCN(CCOC(c3ccccc3)c3ccccc3)CC2)cc(OC)c1OC | -14.1 | -13.6
COc1cc(C=C2C(=O)NC(=S)NC2=O)ccc1OCc1ccccc1[N+](=O)[O-] | -8.0 | -12.5
FC(F)(F)CCN1CCC2(CCNCC2)C1 | 6.9 | 4.8
Cc1nnc(NC(=O)c2cccn(Cc3cccc(C(F)(F)F)c3)c2=O)s1 | 13.4 | 5.0
C=CCN1C(=O)C2(c3ccccc31)c1oc(CO)cc(=O)c1OC(=N)C2C(=O)OC (stereo not given) | 0.4 | -0.2
OC[C@@H]1[C@@H](c2ccccc2)CN2CCN(c3ccccn3)C[C@H]12 | 2.1 | 14.7
NC1C[C@H]1c1ccccc1 (stereo not given in full) | -10.0 | -14.1
N#Cc1ccc(NCC2CSCCS2)cc1Cl (stereo not given) | -17.5 | -22.0
COc1ccc2n[nH]c(CN3CC[C@H](CO)[C@H](O)C3)c2c1 | 7.9 | 8.0
O=C(c1ncccc1O)N1CCC2(CC1)NCCNC2=O | 3.2 | 0.1
CC1=CC(C)C2(C#N)C(=N)OC1(C)C2(C#N)C#N (stereo not given) | 0.8 | 24.9
O=S(=O)(c1ccc(OC(F)(F)F)cc1)N1CCN(CCOC(c2ccc(F)cc2)c2ccc(F)cc2)CC1 | 4.8 | 1.0
CC(N)(Cc1cccc(Br)c1)c1ccccc1 (stereo not given) | -4.1 | -9.2
CN1C2CCCC1CC(Nc1ccc(Cl)cn1)C2 (stereo not given) | -3.5 | 20.3
Cc1ccsc1C(=O)C1CCCN(C2CCSCC2)C1 (stereo not given) | 6.8 | 4.9
CC(C)(C)c1nn(-c2ccc(F)cc2)c2c1C(c1ccsc1)SCC(=O)N2CC(=O)N1CCOCC1 (stereo not given) | 0.3 | -0.9
CCOc1ccnc(N2CCN3CCCC3C2)n1 (stereo not given) | 13.4 | 8.5
O=C(O)COc1ccccc1 | -11.6 | -21.0
CCC(=O)N(Cc1ccco1)Cc1cc(NC(=O)c2cccc(F)c2)ccc1N(C)C1CCN(C)CC1 | 2.2 | 11.6
O=C1NCC2(CCCN(Cc3cc(=O)n4cccc(O)c4n3)C2)O1 (stereo not given) | -0.8 | -6.5
CCCN(CCc1c[nH]c2ccc(NC(=O)C3CCC3)cc12)CC1CC1 | 2.2 | -7.6
CCC1C(C)OC(O)(C(C)C(O)C(C)C2OC(=O)/C=C/C=C/C(C)C(C(C)C(O)C(C)C3(O)CC(OC4CC(O)C(O)C(C)O4)C(CC)C(C)O3)OC(=O)/C=C/C=C/C2C)CC1OC1CC(O)C(O)C(C)O1 (stereo not given) | -3.4 | -12.4
CC(C(N)=O)N1CCC2CCCCC2C1 (stereo not given) | -1.8 | -3.4

Further results
Structure	NPYLR7 agonist	NPYLR7 agonist max-min
CC(N)Cc1c(Cl)cccc1Cl (stereo not given)	5.5	-8.5
CCc1ccccc1-n1nc(C(C)(C)C)c2c1N(CC(=O)NCCOC)C(=O)CSC2c1ccc(OC)cc1 (stereo not given)	12.0	17.0
FC(F)(F)c1ccccc1C1=CCNCC1	1.1	-1.2
Fc1cccc(F)c1CCNCc1cc(Br)c2c(c1)OCCCO2	4.6	3.6
C=CCC1(NCCc2ccccc2)CCCCC1	-15.9	-18.5
CC1(C)C(C(=O)N2CCCC2)C1(C)C	9.2	5.1
CCN1CCN(c2ncnc3c2nnn3CC)CC1	1.1	-0.3
CN(CCc1c[nH]c2ccc(NC(=O)CC(C)(C)C)cc12)C1CCCCC1	25.5	15.8
CN(C)c1ccc(C=C2C(=O)NC(=O)NC2=O)cc1Br	6.6	3.7
O=C(O)Cc1csc(Cc2ccccn2)n1	12.9	5.3
COc1cccc([C@@H]2CN(C(=O)c3ncc(C)[nH]3)[C@@H]3C4CCN(CC4)[C@@H]32)c1	3.9	0.9
Cc1cc(C)n2ncc(CN(C)C(C)Cc3ccccn3)c2n1 (stereo not given)	-0.3	-4.6
C[C@]12CCC(=O)C[C@@H]1CC[C@@H]1[C@@H]2CC[C@@]2(C)[C@H]1CC[C@]2(C)O	-9.5	-16.1
COc1ccc(C2SCC(=O)N(CC(=O)O)c3c2c(C(C)(C)C)nn3-c2ccccc2Cl)cc1OC (stereo not given)	-3.0	-3.6
O[C@@H]1CCCC[C@H]1N1CCC(c2ccccc2)CC1	-14.0&-4.6	-20.6&-4.0
CN1CC(CO)=C[C@@H]2c3cccc4[nH]cc(c34)C[C@H]21	20.8	15.9
Nc1ccc2c(c1)C13CCN4CC5=CCOC6CC(=O)N2C1C6C5CC43 (stereo not given)	3.6	-0.6
O=P(NC1CCCCC1)(NC1CCCCC1)Oc1ccccc1	-6.7	-8.3
COc1ccc2c(c1)c(C(=O)NC1CCC1)nn2Cc1ccc(OCc2ccccc2)cc1	11.2	10.6
Cc1nc(CC(=O)N(C)C2CCCN(CCCc3ccccc3)C2)cs1 (stereo not given)	16.5	5.1
CCCCP(=S)(c1ccccn1)c1ccccn1	-0.2	-1.6
CCn1nc(C)c(CNC(C)Cc2cccc(F)c2)c1C (stereo not given)	2.3	1.4
CCOC(=O)C1=C(c2ccccc2)OC(=N)C(C#N)C12C(=O)Nc1ccccc12 (stereo not given)	-5.3	-9.8
CCCN1C2CCC1CC(C(=O)N(CCC(=O)OC)C(C)C)C2 (stereo not given)	-15.2	-14.1

Some of the entries above in another layout:
O=P(NC1CCCCC1)(NC1CCCCC1)Oc1ccccc1
  NPYLR7 agonist: -6.7; NPYLR7 agonist max-min: -8.3

COc1ccc2c(c1)c(C(=O)NC1CCC1)nn2Cc1ccc(OCc2ccccc2)cc1
  NPYLR7 agonist: 11.2; NPYLR7 agonist max-min: 10.6

Cc1nc(CC(=O)N(C)C2CCCN(CCCc3ccccc3)C2)cs1 (stereo not given)
  NPYLR7 agonist: 16.5; NPYLR7 agonist max-min: 5.1

CCCCP(=S)(c1ccccn1)c1ccccn1
  NPYLR7 agonist: -0.2; NPYLR7 agonist max-min: -1.6

Following part:
Structure	NPYLR7 agonist	NPYLR7 agonist max-min
COc1cc2c(cc1OC)[C@@H]1C(=O)c3ccc(OC)c(CC=C(C)C)c3O[C@@H]1CO2	-2.9	-6.5
CCOC(=O)[C@H]1CN(C(=O)c2ccc3c(c2)OCCCO3)[C@]2(C)C(=O)N(C)c3ccccc3[C@H]12	4.9	18.4
c1ccc(CN2CC[C@H]3CC[C@@H](C2)N3)nc1	15.6	12.0
CN1C(=C2C=NN(c3ccccc3)P2(=S)N2CCOCC2)C(C)(C)c2ccccc21 (stereo not given)	11.7	7.8
Cc1nonc1CC(=O)N1CCCC(N2CCN(Cc3ccc4c(c3)OCO4)CC2)C1 (stereo not given)	2.1	2.2
CN1CCN(C)C2(CCN(c3nccc(C(F)(F)F)n3)CC2)C1	29.0	12.9
N#Cc1ccc(C=NNP(=S)(c2ccccc2)c2ccccc2)cc1	2.9	-2.8
COCCNC(=O)CN1C(=O)CSC(c2cccs2)c2c(C(C)(C)C)nn(-c3cccc(C)c3C)c21 (stereo not given)	4.4	3.8
CN1CC2(CCCN(Cc3cc(-c4ccccn4)no3)C2)OC1=O (stereo not given)	4.5	3.4
CCc1nn2c(=O)cc(N3CCNCC3)nc2s1	6.5	3.6
CCCN1CCc2cc(O)cc3c2[C@H]1Cc1ccc(O)c(O)c1-3	0.1	-29.5
Cc1nc2ccccn2c1CC(=O)N1CCCN2CCC[C@H]2C1	7.4	4.0
